Screening data from PubChem.
Env fusion inh: inhibitors of HIV Env-mediated cell fusion | hit rate 1.1% among 360,000 | AID 651610 | HeLa-JRFL Env/CEM21 cell fusion, luciferase | inhibition, % at 12.3 µM;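 active = mean replicate inhibition score of at least 50 and every replicate individually at or above 50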;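 also: 0% = plate neutral controls and 100% = maraviroc near 300 nM; one replicate is shown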
eIF4H FP inh: inhibitors of RNA binding by human eIF4H; eIF4H fluorescence polarization binding assay; inhibition, % at 35 µM; hit rate 0.94% among 290,000; AID 2012;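 active = 50% or more with normal probe brightness, or confirmed in later tests; about a fifth of its hits are not listed in these tables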;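 also: calls also rest on retests at 20 µM and on dose response follow-up; 0% = protein and probe with vehicle and 100% = probe without protein; strong numbers were not always called active; many hits fall short of the cut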
Yeast UUG start: yeast start codon fidelity modulation; activity score, % at 18.7 µM; S. cerevisiae UUG-firefly luciferase reporter, luminescence/redox ratio; hit rate 0.13% among 350,000;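 active = replicate mean at a twofold rise or more, about +100% in these data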;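 also: firefly luciferase made from a UUG start codon reports start codon fidelity; reporter light over untreated wells divided by growth signal over untreated wells; some hits fall short of that in this replicate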
CSC inhib: blocks cancer stem cells | inhibition, % at 7.5 µM | AID 2717 | hit rate 1.1% among 300,000 | cancer stem cell-like cells viability, luminescence;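 active = mean at 75% or more and at least half the replicates too; tested in HMLE shEcad cells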;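 also: 0% = median of negative and 100% = median of positive control wells; the first replicate is given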
MT1-MMP act inh: MT1-MMP (human) activation inhibition; P50281; HT1080 RFP-PRO-GFP cells, GFP/RFP ratio fluorescence, overnight; percent of plate control window, DMSO zero; GFP/RFP ratio change, % at 20 µM; hit rate 0.061% among 360,000; AID 651647;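 active = GFP/RFP ratio change of at least 30% with cell ATP level not reduced by more than half and red fluorescence within 50% of control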; also: strong numbers were not always called active
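Assay system: HT1080 cells carrying an RFP-PRO-GFP reporter | Dosing: Single dose of 20 µM compound, 1% DMSO final | Incubation: Cells overnight before dosing, compound overnight, 37 °C, 5% CO2 | Evaluation: GFP/RFP fluorescence ratio | Control set: DMSO and RFP-L50D-GFP cell wells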
PABP polyA inh: PABP-poly(A) binding inhibition | PABP-poly(A) RNA binding, fluorescence polarization | inhibition, % at 35 µM | hit rate 1% among 290,000 | AID 2014;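 active = 50% or more with normal probe brightness, or confirmed in later tests; about a fifth of its hits are not listed in these tables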;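 also: calls also rest on retests at 20 µM and on dose response follow-up; controls were probe without protein and protein plus probe with vehicle; some compounds called inactive have numbers as strong as hits; many hits fall short of the cut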
Rce1 inh: yeast Ras-converting enzyme inhibition. Q03530. yeast membranes, quenched prenylated peptide cleavage fluorescence. calls only. hit rate 0.27% among 290,000;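 active = fall in fluorescence gain of 50% or more versus controls, with final raw signal at or below 3038400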;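 also: plate controls were neutral control wells for no effect and wells lacking membranes for full effect; tested at 10 µM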
Target sequence (Q03530 whole entry, looked up): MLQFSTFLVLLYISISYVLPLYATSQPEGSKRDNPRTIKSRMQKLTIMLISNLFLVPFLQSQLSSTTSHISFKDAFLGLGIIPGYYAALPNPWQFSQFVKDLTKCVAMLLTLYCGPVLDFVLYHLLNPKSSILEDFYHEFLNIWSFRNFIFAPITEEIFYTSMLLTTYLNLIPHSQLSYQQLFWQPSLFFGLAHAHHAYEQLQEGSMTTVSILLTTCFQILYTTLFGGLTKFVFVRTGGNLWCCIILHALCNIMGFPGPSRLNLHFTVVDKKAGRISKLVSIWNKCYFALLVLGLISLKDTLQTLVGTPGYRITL
eIF4H FP inh retest: further read-out of eIF4H FP inh, marked with its call; inhibition, %; compound at 20 µM; confirmation average;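 mean of two retest wells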
PABP polyA inh retest: second read-out of PABP polyA inh, no call of its own (marks repeat the call); inhibition, %; compound at 20 µM; confirmation repeats;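 mean of two retest wells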
MT1-MMP act inh RFP: recorded beside MT1-MMP act inh, whose call it bears; RFP signal change, %; measured here: RFP expression control read;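 0 = vehicle wells; hits needed this value within 50% of zero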
* hit, by the source's call; & = joins results of further samples. Compounds as they come; about 3% have a hit in one of these screens.

What do the screens show for `Cc1cc2c(cc1C)-c1nnnn1C(C)(C)C2`?
Env fusion inh: -19; eIF4H FP inh: 6; Yeast UUG start: -18; CSC inhib: -4; MT1-MMP act inh: 2; PABP polyA inh: 10; Rce1 inh: inactive; MT1-MMP act inh RFP: 1

What do the screens show for `CCOc1ccc2c(O)csc2c1`?
eIF4H FP inh: -6; CSC inhib: 0; MT1-MMP act inh: 1; PABP polyA inh: 5; Rce1 inh: inactive; MT1-MMP act inh RFP: 7

What do the screens show for `COc1cc(C)ccc1S(=O)(=O)NC(=O)C1(C)CCN1C(=O)C1(c2ccc(Cl)cc2)CCC1` (stereo not drawn)?
Env fusion inh: 12; Yeast UUG start: 9; MT1-MMP act inh: -4; MT1-MMP act inh RFP: -1

Results for O=C(/C=C/c1ccccc1[N+](=O)[O-])NCc1cccnc1 ?
Env fusion inh: 3; eIF4H FP inh: 2; CSC inhib: 10; MT1-MMP act inh: 0; PABP polyA inh: 13; Rce1 inh: inactive; MT1-MMP act inh RFP: 2

How did CN1OC(COC(=O)c2ccc(Cl)cc2Cl)CC1c1ccccc1 (stereo not drawn) do in these assays?
Env fusion inh: -40; eIF4H FP inh: -3; Yeast UUG start: -7; CSC inhib: -10; MT1-MMP act inh: -5; PABP polyA inh: -3; Rce1 inh: inactive; MT1-MMP act inh RFP: -3

Results for N#C/C(=C\c1c(Oc2ccccc2Cl)nc2ccccn2c1=O)C(=O)NC1CCS(=O)(=O)C1 (stereo not drawn) ?
Env fusion inh: -3; eIF4H FP inh: 8; Yeast UUG start: 1; CSC inhib: -6; MT1-MMP act inh: -3; PABP polyA inh: 0; Rce1 inh: inactive; MT1-MMP act inh RFP: -4

What do the screens show for `COc1ccc2c(c1)C(C)(Cc1ccc(C(=O)c3ccccc3)cc1)C(=O)N2` (stereo not drawn)?
Env fusion inh: -14; Yeast UUG start: -9; MT1-MMP act inh: 9; MT1-MMP act inh RFP: -8

Results for CCOC(=O)C(C)Sc1nc2c(cnn2-c2ccc(F)cc2)c(=O)[nH]1 (stereo not drawn) ?
Env fusion inh: 23; eIF4H FP inh: -2; Yeast UUG start: -14; CSC inhib: 31; PABP polyA inh: 5; Rce1 inh: inactive

What do the screens show for `COc1ccc(C)cc1NC(=O)CCN1CCN(c2ccccc2F)CC1`?
Env fusion inh: -4; eIF4H FP inh: -2; Yeast UUG start: -17; CSC inhib: 3; MT1-MMP act inh: 2; PABP polyA inh: 6; Rce1 inh: inactive; MT1-MMP act inh RFP: -7

Results for COCCc1nc2ccc(C(=O)N(C)Cc3cccc(-n4nc(C)cc4C)c3)cc2o1 ?
eIF4H FP inh: -12; Yeast UUG start: -6; CSC inhib: -12; MT1-MMP act inh: -1; PABP polyA inh: 1; Rce1 inh: inactive; MT1-MMP act inh RFP: 0

What do the screens show for `O=C1[C@@H](Oc2ccccc2)[C@@H](c2cnc3ccccc3c2)N1c1ccccc1`?
Env fusion inh: -54; Yeast UUG start: -4; MT1-MMP act inh: -11; MT1-MMP act inh RFP: -15

How did c1coc(CNc2ncnc3[nH]ncc23)c1 do in these assays?
Env fusion inh: 5; eIF4H FP inh: 6; Yeast UUG start: -14; CSC inhib: -8; MT1-MMP act inh: 1; PABP polyA inh: -7; Rce1 inh: inactive; MT1-MMP act inh RFP: -6

What do the screens show for `COc1ccc(OC)c(N2C(=O)CC(Cc3ccc(C)cc3)C2=O)c1` (stereo not drawn)?
Env fusion inh: -8; eIF4H FP inh: -6; Yeast UUG start: 5; CSC inhib: -3; MT1-MMP act inh: -16; PABP polyA inh: 3; Rce1 inh: inactive; MT1-MMP act inh RFP: -2

What do the screens show for `COc1ccccc1NC(=O)CSc1nnc(NC(=O)C2CC2)s1`?
Env fusion inh: -2; eIF4H FP inh: -4; Yeast UUG start: -22; CSC inhib: -5; MT1-MMP act inh: 2; PABP polyA inh: 11; MT1-MMP act inh RFP: -3

What do the screens show for `C[n+]1cccc(/C=N/NC(=O)CC23CC4CC(CC(C4)C2)C3)c1`?
Env fusion inh: 8; CSC inhib: -12; MT1-MMP act inh: -1; Rce1 inh: inactive; MT1-MMP act inh RFP: 3

How did CCN1C(=O)/C(=C\N(C)C)NC1=S do in these assays?
Env fusion inh: 8; eIF4H FP inh: -1; CSC inhib: 2; MT1-MMP act inh: 5; PABP polyA inh: 2; Rce1 inh: inactive; MT1-MMP act inh RFP: 7

Results for COc1ccccc1OCCNC(=O)CCS(=O)(=O)c1ccccc1 ?
Yeast UUG start: -14; CSC inhib: 3; MT1-MMP act inh: -2; MT1-MMP act inh RFP: 1

How did Cc1[nH]nc(-c2ccc(O)c(C)c2O)c1Oc1ccccc1 do in these assays?
Env fusion inh: -96; eIF4H FP inh: 6; Yeast UUG start: -19; MT1-MMP act inh: 9; PABP polyA inh: 5; Rce1 inh: inactive; MT1-MMP act inh RFP: -9

Results for C=CCOC(=O)Nc1c(C(=O)OC)[nH]c2ccc(Cl)cc12 ?
eIF4H FP inh: 4; Yeast UUG start: -21; CSC inhib: -14; MT1-MMP act inh: 5; PABP polyA inh: 0; Rce1 inh: inactive; MT1-MMP act inh RFP: 2

Results for Cc1cc(OCCSc2nnc(-c3cccs3)n2C)ccc1Cl ?
eIF4H FP inh: -2; Yeast UUG start: 0; CSC inhib: -13; MT1-MMP act inh: -4; PABP polyA inh: 3; Rce1 inh: inactive; MT1-MMP act inh RFP: -1

How did Cc1ccc(-c2cc(N)n[nH]2)cc1 do in these assays?
eIF4H FP inh: -5; Yeast UUG start: -4; CSC inhib: 5; MT1-MMP act inh: -3; PABP polyA inh: 14; Rce1 inh: inactive; MT1-MMP act inh RFP: 4

Results for CC1(C)CC(=O)c2cc(OCC(=O)NCCCN3CCN(c4ccccc4F)CC3)ccc2O1 ?
Env fusion inh: -5; eIF4H FP inh: 10; Yeast UUG start: -7; CSC inhib: -13; MT1-MMP act inh: 0; PABP polyA inh: 5; Rce1 inh: inactive; MT1-MMP act inh RFP: -5

How did CN(CCO)S(=O)(=O)c1ccc2c(c1)C(=NO)c1cc(S(=O)(=O)N(C)CCO)ccc1-2 do in these assays?
Env fusion inh: 12; eIF4H FP inh: 6; Yeast UUG start: -9; CSC inhib: -8; MT1-MMP act inh: -1; PABP polyA inh: 8; MT1-MMP act inh RFP: 1

Results for Cc1cc(-c2nnc(SCC(=O)Nc3c(C)cccc3C)n2N)n[nH]1 ?
Env fusion inh: -18; eIF4H FP inh: 0; Yeast UUG start: -21; CSC inhib: -6; MT1-MMP act inh: 0; PABP polyA inh: -4; Rce1 inh: inactive; MT1-MMP act inh RFP: -3

How did CC(C)(C)n1nc2c(c1NC(=O)c1ccc(Br)o1)CS(=O)C2 (stereo not drawn) do in these assays?
eIF4H FP inh: -10; Yeast UUG start: -14; CSC inhib: 4; MT1-MMP act inh: -2; PABP polyA inh: -2; Rce1 inh: inactive; MT1-MMP act inh RFP: 4

Results for COc1ccc2[nH]c(=O)c(COC(=O)c3ccco3)cc2c1 ?
eIF4H FP inh: 1; Yeast UUG start: -9; CSC inhib: -4; MT1-MMP act inh: -2; PABP polyA inh: -5; Rce1 inh: inactive; MT1-MMP act inh RFP: 1

How did Cc1c(-c2cccc(Cl)c2)nc2ccccc2c1C(=O)OC/C(O)=C(\C#N)c1nc2ccccc2[nH]1 do in these assays?
Env fusion inh: -20; eIF4H FP inh: 74; Yeast UUG start: -34; CSC inhib: 98*; MT1-MMP act inh: -28; PABP polyA inh: 11; Rce1 inh: inactive; eIF4H FP inh retest: -1; PABP polyA inh retest: 5; MT1-MMP act inh RFP: -5

What do the screens show for `O=C(Nc1ncc(Cc2ccc(SC(F)F)cc2)s1)c1ccc(OC(F)F)cc1`?
Env fusion inh: -9; eIF4H FP inh: -12; CSC inhib: 75*; MT1-MMP act inh: 13; PABP polyA inh: 15; Rce1 inh: inactive; MT1-MMP act inh RFP: -12

What do the screens show for `O=S(=O)(Nc1nnc(C2CC2)s1)c1ccccc1`?
Env fusion inh: -29; eIF4H FP inh: -15; Yeast UUG start: -7; MT1-MMP act inh: -4; PABP polyA inh: -4; Rce1 inh: inactive; MT1-MMP act inh RFP: -2

How did Cc1c(C(=O)OCC(=O)Nc2ccc(C(N)=O)cc2)cccc1[N+](=O)[O-] do in these assays?
Env fusion inh: 22; eIF4H FP inh: -1; CSC inhib: -13; MT1-MMP act inh: 1; PABP polyA inh: 2; Rce1 inh: inactive; MT1-MMP act inh RFP: -5

How did Cc1ccc(C2CC(=O)NC(SCC(N)=O)=C2C#N)s1 (stereo not drawn) do in these assays?
Env fusion inh: 8; eIF4H FP inh: -1; CSC inhib: 2; MT1-MMP act inh: 2; PABP polyA inh: 8; Rce1 inh: inactive; MT1-MMP act inh RFP: 1

How did CC(C)NC(=O)c1ccccc1NC(=O)CCS(=O)(=O)Cc1ccccc1 do in these assays?
eIF4H FP inh: 1; Yeast UUG start: -4; MT1-MMP act inh: -3; PABP polyA inh: 8; Rce1 inh: inactive; MT1-MMP act inh RFP: 1

How did O=C(NCC(=O)N1CCN(S(=O)(=O)c2ccc3c(c2)OCCO3)CC1)c1ccccc1F do in these assays?
Yeast UUG start: 11; CSC inhib: -16; MT1-MMP act inh: -1; MT1-MMP act inh RFP: -1

Results for Nc1nc(NC(=O)c2cccnc2)nn1-c1ccccc1 ?
eIF4H FP inh: -4; Yeast UUG start: -11; CSC inhib: -16; MT1-MMP act inh: 4; PABP polyA inh: -10; Rce1 inh: inactive; MT1-MMP act inh RFP: 5

How did COc1ccc(N(CC(=O)N/N=C/c2ccc(OC3CSC3)cc2)S(=O)(=O)c2ccccc2)cc1 do in these assays?
eIF4H FP inh: 12; CSC inhib: 5; MT1-MMP act inh: 3; PABP polyA inh: 3; Rce1 inh: inactive; MT1-MMP act inh RFP: -2

Results for CCOC(=O)c1ccc(NC(=O)CSc2nc3c(c(=O)n2CC)SC(C)C3)cc1 (stereo not drawn) ?
Env fusion inh: -2; eIF4H FP inh: 1; Yeast UUG start: 4; CSC inhib: 0; MT1-MMP act inh: -8; PABP polyA inh: -2; Rce1 inh: inactive; MT1-MMP act inh RFP: -13

What do the screens show for `CCOc1cc(CN2CCOCC2)cc(C(C)=O)c1`?
eIF4H FP inh: 29; Yeast UUG start: -5; CSC inhib: 9; MT1-MMP act inh: 0; PABP polyA inh: 30; Rce1 inh: inactive; MT1-MMP act inh RFP: -1

What do the screens show for `O=[N+]([O-])c1ccc(Cl)cc1C=NNc1ccccn1`?
Env fusion inh: -4; Yeast UUG start: 9; MT1-MMP act inh: -1; MT1-MMP act inh RFP: 1

What do the screens show for `Cc1ccc(SCC(=O)NCCN2C(=O)CSC2=O)c(C)c1`?
Env fusion inh: -1; eIF4H FP inh: -9; Yeast UUG start: -16; CSC inhib: 3; MT1-MMP act inh: -14; PABP polyA inh: 3; Rce1 inh: inactive; MT1-MMP act inh RFP: 0

What do the screens show for `CCOc1ccccc1NC(=O)N1CCC(NC(=O)C2CCCCC2)CC1`?
Env fusion inh: 4; eIF4H FP inh: -6; Yeast UUG start: 0; MT1-MMP act inh: 0; PABP polyA inh: 4; Rce1 inh: inactive; MT1-MMP act inh RFP: -3

What do the screens show for `C[C@H]1CN([C@@H](C)CO)C(=O)CCCn2nncc2CO[C@@H]1CN(C)S(=O)(=O)c1ccc2ccccc2c1`?
Env fusion inh: 39; Yeast UUG start: -12&0; MT1-MMP act inh: -3; MT1-MMP act inh RFP: -1
